KCNQ2 block: KCNQ2 channel blockers in CHO-K1 cells – cell-based, FluxOR thallium flux, B-score, primary screen (AID 2156); 20 min; active compounds read low; only compounds with negative scores are shown here; some inactives read as strong as hits; B-score at 10 µM; actives 1.1% (n = 310,000);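 active = fluorescence ratio B-score at most minus 3 library SDs, with starting brightness B-score within 2 library SDs, cut at about -5.5 in these data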
Target sequence (O88943 whole entry, looked up): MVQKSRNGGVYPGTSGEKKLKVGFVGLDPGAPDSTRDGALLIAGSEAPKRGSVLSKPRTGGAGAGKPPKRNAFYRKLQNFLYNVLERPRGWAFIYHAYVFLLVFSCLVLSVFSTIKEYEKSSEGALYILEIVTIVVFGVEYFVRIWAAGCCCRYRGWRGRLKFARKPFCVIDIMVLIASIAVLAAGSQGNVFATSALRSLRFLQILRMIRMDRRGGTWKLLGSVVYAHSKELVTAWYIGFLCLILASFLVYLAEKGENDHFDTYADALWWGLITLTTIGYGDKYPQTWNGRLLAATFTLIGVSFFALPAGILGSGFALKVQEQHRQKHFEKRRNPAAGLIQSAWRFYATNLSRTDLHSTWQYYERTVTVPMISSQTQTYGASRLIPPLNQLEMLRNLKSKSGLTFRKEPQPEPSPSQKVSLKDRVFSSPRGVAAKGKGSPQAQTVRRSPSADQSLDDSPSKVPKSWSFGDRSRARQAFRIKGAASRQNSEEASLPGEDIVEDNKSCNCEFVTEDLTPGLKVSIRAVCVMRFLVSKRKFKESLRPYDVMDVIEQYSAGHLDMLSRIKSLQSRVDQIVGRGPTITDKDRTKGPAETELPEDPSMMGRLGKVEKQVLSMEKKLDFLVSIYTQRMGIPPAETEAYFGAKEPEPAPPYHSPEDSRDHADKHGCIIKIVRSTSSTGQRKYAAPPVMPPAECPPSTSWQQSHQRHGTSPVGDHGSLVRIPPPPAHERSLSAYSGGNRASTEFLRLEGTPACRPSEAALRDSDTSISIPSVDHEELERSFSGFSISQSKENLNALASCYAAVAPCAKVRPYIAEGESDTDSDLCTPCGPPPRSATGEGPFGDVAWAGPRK
KCNQ2 block baseline: second read-out of KCNQ2 block, no call of its own (marks repeat the call); B-score; measured here: initial fluorescence intensity artifact check;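 brightness before thallium and not channel activity; 0 = typical well and far values either way flag optical interference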
* = called active by the depositor; i = inactive.

KCNQ2 block	KCNQ2 block baseline	molecule
i	0.78	Cc1ccc(CSCC(=O)Nc2c(C)n(C)n(-c3ccccc3)c2=O)cc1
i	2.09	CCOC(=O)N1CCC(NC(=O)c2cc3c(-c4cccc(OC)c4)nn(C)c3s2)CC1
i	2.37	Cc1cc(=O)oc(C)c1C(=O)NCc1ccccc1
i	0.23	Nc1ncc(CN2CCCC(C(=O)Nc3ccc(-c4ccco4)cc3)C2)cn1 (stereo not drawn)
i	-0.15	CCCn1c(SCC(=O)N2c3ccc(F)cc3CCC2C)nnc1-c1ccccn1 (stereo not drawn)
i	0.07	O=C(NC1CCCC1)c1cc(-c2ccccc2)nc2ccccc12
i	-0.17	CSc1ccccc1NC(=O)c1cc(C2CC2)on1
i	0.74	CC1CN(C(=O)CCc2cc(C(C)(C)C)c(O)c(C(C)(C)C)c2)CC(C)O1 (stereo not drawn)
i	1.08	N/C(Cc1cccc2ccccc12)=N\OC(=O)Cc1cccs1
i	-1.91	CC(=O)C(Sc1nccc(-c2cccs2)n1)C(C)=O
i	-0.33	COC(=O)c1cn(C(=O)c2ccc(Cl)cc2)c2ccccc12
-6.43*	1.19*	COc1ccc(CNC(=O)C(c2ccc(C)o2)N(Cc2cccs2)C(=O)Cc2cccs2)cc1 (stereo not drawn)
i	-0.8	COc1ccc2cc3cc(C(=O)NC(C)C)oc3nc2c1
i	0.08	Cc1ccc(CN2CCN(/N=C/c3cc(Br)ccc3O)CC2)cc1
i	0.11	CC1(C)CC2(CC(c3ccccc3F)c3ccc(O)c(O)c3O2)NC(=S)N1 (stereo not drawn)
i	-0.87	Cc1onc(-c2c(F)cccc2Cl)c1C(=O)Nc1nc2c(s1)CCCC2
i	0.01	Cc1ccc(C)c(-n2c(-c3csc(C)c3)n[nH]c2=S)c1
i	-1.94	CC(C)c1ccc(NS(=O)(=O)c2ccc(N3C(=O)CCC3=O)cc2)cc1
i	0.06	CC(C)CN1CC(=O)N2C(c3ccccc3)c3[nH]c4ccccc4c3C[C@H]2C1=O (stereo partly drawn)
i	0.43	N#Cc1c(C(F)(F)F)cc(-c2ccccc2)n(N)c1=O
i	0.39	NC(=S)c1ncc(C(F)(F)F)cc1Cl
i	0.13	COc1ccc(C(=S)N2CCCC2)cc1OC
i	1.09	COc1cc(/C=N\NC(=O)c2ccc(-c3ccccc3)cc2)cc(OC)c1OC(C)=O
i	-1.56	C=CCNC(=O)CSc1nc2scc(-c3ccco3)c2c(=O)n1CC=C
i	-0.08	COCCn1nnnc1C(c1cc2ccc(C)cc2[nH]c1=O)N(Cc1ccco1)Cc1cccs1 (stereo not drawn)
i	0.47	CCCCN(C(=O)C1=COCCO1)c1c(N)n(Cc2ccccc2)c(=O)[nH]c1=O
i	0.55	O=C(CSc1nc2ccccc2s1)c1ccc(O)cc1O
i	-0.4	CCCCCCC(=O)N(O)C1CC(=O)N(c2ccc(F)cc2)C1=O (stereo not drawn)
i	1.09	COc1ccc(NC(=O)C2CCCN(C(=O)Nc3cccc(OC)c3)C2)cc1 (stereo not drawn)
i	0.04	O=C1c2ccccc2C(O)(c2ncc[nH]2)N1C1CCCCC1 (stereo not drawn)
i	-0.09	Cc1ccc(O)c(NC(=O)Cc2ccc3ccccc3c2)c1
i	-0.77	CCCCCCN=C(C)C1=C(O)C(C(=O)OC)C(C)(C)CC1=O (stereo not drawn)
i	0.83	COc1ccc(S(=O)(=O)N2CCOC2CNC(=O)C(=O)NCc2ccc(F)cc2)cc1OC (stereo not drawn)
i	-1.72	Cc1sc2ncn(CCn3cnc4sc(C)c(C)c4c3=O)c(=O)c2c1C
-6.25*	-2.45*	COc1ccccc1NC(=S)NCCc1ccc(Cl)cc1
i	1.17	CC(=O)N1CCc2cc(S(=O)(=O)CCC(=O)NCc3ccc(F)cc3)ccc21
i	0.16	C[C@@H](C(=O)Nc1nc2ccc(F)cc2s1)N1C(=O)C2CC=CCC2C1=O (stereo partly drawn)
i	-1.8	COc1ccccc1-n1ccnc1SCC(=O)NC1CCCC1
i	0.07	CSCCC(NC(=O)c1ccccc1)C(=O)OCC(=O)Nc1ccc(C)c(Cl)c1 (stereo not drawn)
i	-0.15	CC(=O)Nc1sc(C)c(C)c1C(=O)OCCOc1ccccc1
i	1.46	O=C(COC(=O)c1cccc(S(=O)(=O)N2CCc3ccccc3C2)c1)NCc1ccco1
i	0.4	CC1CCCC(C)N1C(=O)COC(=O)CNC(=O)C12CC3CC(CC(C3)C1)C2 (stereo not drawn)
i	-0.02	COC(=O)CSc1nc2ccccc2c(=O)n1C
i	0.02	CCN1CCN(CCCNC(=O)C2c3ccccc3C(=O)N(C)C2c2ccc(OC)cc2)CC1 (stereo not drawn)
i	1.95	CC(C)(C)n1ncc2c(=O)n(Cc3ccc(Cl)cc3Cl)cnc21
i	-0.68	CC(C)C(NS(=O)(=O)c1cccs1)C(=O)N1CCc2ccccc2C1 (stereo not drawn)
i	0.05	COc1ccc2oc(C(=O)N3CCN(S(=O)(=O)c4cccc([N+](=O)[O-])c4)CC3)c(C)c2c1
i	1.49	CN1C(=O)C(C)(C)N(C(=O)c2cccc([N+](=O)[O-])c2)c2ccccc21
i	0.69	COc1ccc(NC2CCCN(C(=O)C3(C)CCCCC3)C2)cc1 (stereo not drawn)
i	-0.63	CCN(CC)S(=O)(=O)N1CCC(C(=O)NCC2COc3ccccc3O2)CC1 (stereo not drawn)

In the list so far, 2 contain a tert-butyl group.
KCNQ2 block	KCNQ2 block baseline	molecule
i	0.74	CC1CN(C(=O)CCc2cc(C(C)(C)C)c(O)c(C(C)(C)C)c2)CC(C)O1 (stereo not drawn)
i	1.95	CC(C)(C)n1ncc2c(=O)n(Cc3ccc(Cl)cc3Cl)cnc21

Back to the main list, repeating the 2 entries before the break.
KCNQ2 block	KCNQ2 block baseline	molecule
i	0.69	COc1ccc(NC2CCCN(C(=O)C3(C)CCCCC3)C2)cc1 (stereo not drawn)
i	-0.63	CCN(CC)S(=O)(=O)N1CCC(C(=O)NCC2COc3ccccc3O2)CC1 (stereo not drawn)
i	-1.18	CCOC(=O)C1=C(C)NC(C)=C(C(=O)OCC)C1/C=C/c1ccccc1
i	-0.34	Cc1ccc(CSCc2ccc(C(=O)NCC3CCCO3)o2)cc1 (stereo not drawn)
i	0.44	O=C(NCCc1ccccn1)c1cc(-c2cccc3ccccc23)nc2ccccc12
i	-0.44	Cc1ccc(O)c(-c2cc(-c3ccc(F)cc3)no2)c1
i	1.75	COc1cccc(OCc2cc(C(=O)NCc3ccccn3)no2)c1
i	-0.01	Cc1cc(C)n2nc3ccccc3c2n1
i	-0.83	C=C1N(CCCCCC(=O)O)C(=O)OC12CCCCC2
i	0.44	O=C1c2ccccc2C(=O)N1CCCCCc1nc(-c2ccccc2)no1
i	-0.89	CCC1CCCCN1C(=O)c1sc2nc(C)nc(N(CC)CC)c2c1C (stereo not drawn)
i	-0.15	O=C(CSc1nnc(C2CC2)n1Cc1ccccc1)c1ccc(S(=O)(=O)N2CCOCC2)cc1
i	0.03	CCN1C/C(=C/c2ccc(OC)c(O)c2)C(=O)/C(=C/c2ccc(OC)c(O)c2)C1
i	1.5	O=C(NC1CCS(=O)(=O)C1)/C(=C/c1ccco1)NC(=O)c1ccccc1 (stereo not drawn)
i	-0.23	CCOC(=O)c1c(NC(=O)c2ccc(N3C(=O)[C@@H]4[C@H](C3=O)[C@H]3C=C[C@@H]4C3)cc2)sc2c1CCCC2
i	0.64	CC(=O)CSc1nc(-c2cccs2)c(C#N)c(=O)[nH]1
i	3.67	CN1CCN(c2nc(N3CCN(c4ccccc4)CC3)ncc2F)CC1
i	0.6	COC(=O)C1=C(COc2ccccc2)NC(=O)NC1c1ccc(Br)cc1 (stereo not drawn)
i	0.5	COc1cc2c3c(c1OC)C1(C=CC(=O)C=C1)CC3N(C(=O)CCC(=O)O)CC2 (stereo not drawn)
i	-0.36	Cn1c(=O)c2c(nc(N3CCc4ccccc4C3)n2Cc2ccccc2F)n(C)c1=O
i	0.39	Cc1ccc(NC(=S)N2CCCCCC2)c(C)c1
i	-1.01	CCOC(=O)C(=CNCC(=O)O)C(=O)OCC
i	0.93	Cc1cccc2nc(CSc3ccccc3C(=O)O)cn12
i	1.84	COc1ccc(NC(=O)c2cccnc2)cc1OCC(C)C
i	2.17	CCc1ccc(C(=O)NC(=S)Nc2ccc3c(c2)OCCO3)cc1
i	-2.35	O=C(Cc1ccccc1)N/N=C/c1ccc(S(=O)(=O)O)o1
i	-1.09	COc1ccccc1C(=O)Nc1ccc(S(=O)(=O)Nc2cnc3ccccc3n2)cc1
i	0.64	Cc1cc2ncc(C(=O)Nc3ccsc3C(=O)O)c(C)n2n1
i	1.35	Cc1c(OC(C)C(=O)NCCN2CCOCC2)ccc2c3c(c(=O)oc12)CCCC3 (stereo not drawn)
i	0.01	CN(C)CCCNc1oc(-c2ccccc2)nc1C#N
i	0.07	O=c1oc2ccccc2c(O)c1C=NCc1ccccn1
i	0.33	O=C(CN1C(=O)c2cccnc2Oc2ccc(Cl)cc21)N1CCOCC1
i	0.91	COc1ccc(NC(=O)CSc2nnc(NC(=O)c3ccccc3C(=O)O)s2)cc1
i	1.52	CCC(=O)/C=C1/Sc2ccc(OC)cc2N1CC
i	1.85	COc1ccc(CCNCC(=O)Nc2ccc(C)c(Br)c2)cc1OC
i	-1.89	CCNC(=O)CN(Cc1ccccc1)S(=O)(=O)c1ccccc1
i	0.57	COc1cc(CN2CCN(C(=O)c3ccc(-c4ccccc4)cc3)CC2)cc(OC)c1OC
i	-0.06	CC(NC(=O)NC(=O)c1ccc(Cl)cc1)c1ccccc1 (stereo not drawn)
i	-0.65	O=C(NC1=NCCS1)C1COc2ccccc2O1 (stereo not drawn)
i	-0.86	CN1C(=O)/C(=C/c2ccccc2F)Sc2ccc(C(=O)N3CCCC3)cc21
i	-0.65	CC1=C(C(=O)N2CCOCC2)C(c2cccc(C)c2)NC(=S)N1 (stereo not drawn)
i	-1.51	COc1cccc(-c2cn3nc4c(nc3n2)CCCC4)c1
i	1.73	NCC(c1ccccc1Cl)c1c[nH]c2ccccc12 (stereo not drawn)
i	0.73	O=C(NC(=O)N1CCN(c2ccc([N+](=O)[O-])cn2)CC1)c1c(Cl)cccc1Cl
i	-0.15	CCCCn1c(-c2cccc(C)c2)nc2cc3[nH]c(=O)c(C(C)C)nc3cc21
i	-1.24	O=C(Oc1ccc2ccccc2c1Cl)N1CCCC1
i	1.02	COc1ccc(Cn2c(C3CC3)nc3ccc(NC(=O)c4ccco4)cc3c2=O)cc1
i	0.18	COC(=O)c1ccc(CN2CCN(Cc3ccc(F)cc3)C(CCO)C2)cc1 (stereo not drawn)
-6.09*	2.64*	COc1ccc(/C=C2\C(=O)N(Cc3ccc(F)cc3)CC(=O)N2Cc2ccccc2)cc1
i	-0.5	C=CCC(=O)N(CC)CC1CCCN(CCc2cccc(F)c2)C1 (stereo not drawn)
i	-0.02	COc1cc(OC)cc(C(=O)OCC(=O)Nc2cccc(C(C)=O)c2)c1
i	-0.69	O=C(NNc1c2ccccc2nc2ccccc12)c1cc2ccccc2cc1O

Following part.
KCNQ2 block	KCNQ2 block baseline	molecule
i	-0.41	Cc1nn(C)c(Cl)c1CN1CCN(C2CCCCC2)C(CCO)C1 (stereo not drawn)
i	-0.08	Cc1cnc(NC(=O)C2COc3ccccc3O2)s1 (stereo not drawn)
i	0.02	CCc1c(C)nc2ncnn2c1NCCc1ccc(OC)cc1
i	3.59	Cc1cc(=O)n2[nH]c(COc3ccccc3)nc2n1
i	-0.39	Cc1ccc(C(=O)NCCc2nnc3ccc(SCC(=O)Nc4ccccc4F)nn23)cc1
i	3.74	O=C(c1ccccc1)c1ccccn1
i	-1.42	O=C(CCCCCn1c(SCC(=O)c2ccccc2)nc2ccccc2c1=O)NCc1ccco1
i	-0.4	COc1nn(-c2ccccc2)c(=O)c(Cl)c1Cl
i	-0.03	COC(=O)CN(c1cccc(OC)c1)S(C)(=O)=O
i	0.63	COc1ccc(N2CC(C(=O)Nc3ccc(S(=O)(=O)N4CCCCC4)cc3)CC2=O)cc1 (stereo not drawn)
i	0.32	Cc1ccc(C(=O)Nn2cnc3ccccc3c2=O)cc1C
i	0.34	NC(=O)c1nc(C2CCCCC2)nc2c1[nH]c(=O)n2-c1ccc(F)cc1
i	-0.56	CCCCn1c(O)c(/C=C/C=C/C=Nc2ccccc2)sc1=S
i	-0.29	CC1=C(CC(=O)O)c2cc(F)ccc2/C1=C/c1ccc(S(C)=O)cc1 (stereo not drawn)

Gathered by group, the entries above containing a furan ring, fused or not
KCNQ2 block	KCNQ2 block baseline	molecule
i	0.23	Nc1ncc(CN2CCCC(C(=O)Nc3ccc(-c4ccco4)cc3)C2)cn1 (stereo not drawn)
-6.43*	1.19*	COc1ccc(CNC(=O)C(c2ccc(C)o2)N(Cc2cccs2)C(=O)Cc2cccs2)cc1 (stereo not drawn)
i	-0.8	COc1ccc2cc3cc(C(=O)NC(C)C)oc3nc2c1
i	-1.56	C=CCNC(=O)CSc1nc2scc(-c3ccco3)c2c(=O)n1CC=C
i	-0.08	COCCn1nnnc1C(c1cc2ccc(C)cc2[nH]c1=O)N(Cc1ccco1)Cc1cccs1 (stereo not drawn)
i	1.46	O=C(COC(=O)c1cccc(S(=O)(=O)N2CCc3ccccc3C2)c1)NCc1ccco1
i	0.05	COc1ccc2oc(C(=O)N3CCN(S(=O)(=O)c4cccc([N+](=O)[O-])c4)CC3)c(C)c2c1
i	-0.34	Cc1ccc(CSCc2ccc(C(=O)NCC3CCCO3)o2)cc1 (stereo not drawn)
i	1.5	O=C(NC1CCS(=O)(=O)C1)/C(=C/c1ccco1)NC(=O)c1ccccc1 (stereo not drawn)
i	-2.35	O=C(Cc1ccccc1)N/N=C/c1ccc(S(=O)(=O)O)o1
i	1.02	COc1ccc(Cn2c(C3CC3)nc3ccc(NC(=O)c4ccco4)cc3c2=O)cc1
i	-1.42	O=C(CCCCCn1c(SCC(=O)c2ccccc2)nc2ccccc2c1=O)NCc1ccco1

A portion of the library, so the mix of outcomes need not match the whole.
